# MARV entry inh: Marburg virus entry inhibition; Potency, µM (doses to about 37.8 µM), for the others: at the highest dose activity change, negative = inhibition, most hits filed as inhibitors; Marburg virus pseudotyped entry inhibition, cell reporter; control for the full effect not named in the record; about a third of the inactives were read at about 46 µM; 300,000 tested, 1.8% active; active = well fitted inhibition curve with a large enough effect; inconclusive = small, poorly fitted or top-dose-only effect, or effect the other way; inactive = flat fitted curve, though single readings scatter; tested in HEK293 cells; about a fifth of its hits are not listed in these tables; also: % is scaled to controls: 0 for no effect and ±100 for the full control effect; luciferase read-out
# Cruzain inh Det: inhibitors of Trypanosoma cruzi cruzain with detergent. Potency, µM, for inactives: max response, negative = inhibition, most hits filed as inhibitors. AID 1478. purified cruzain, Z-FR-AMC fluorescence, 0.01% Triton. P25779. 200,000 tested, 0.43% active;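 also: plate controls were neutral wells for no effect and buffer without enzyme for full effect; nearly all actives have a fitted effect of over 40% in size; top concentration of the series not given in the record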
# Target sequence (P25779 123-467 limits assumed): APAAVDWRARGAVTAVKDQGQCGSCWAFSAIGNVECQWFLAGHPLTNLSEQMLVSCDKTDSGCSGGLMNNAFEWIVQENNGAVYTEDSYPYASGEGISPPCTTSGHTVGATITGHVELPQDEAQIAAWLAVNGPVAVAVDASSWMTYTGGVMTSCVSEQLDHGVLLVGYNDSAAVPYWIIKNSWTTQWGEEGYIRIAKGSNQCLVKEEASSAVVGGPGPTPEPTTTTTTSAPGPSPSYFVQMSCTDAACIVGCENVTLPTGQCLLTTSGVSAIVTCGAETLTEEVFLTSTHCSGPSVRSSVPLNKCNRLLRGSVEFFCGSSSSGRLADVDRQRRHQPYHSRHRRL
#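 Sodium acetate buffer (100 mM, pH 5.5) containing 5 mM DTT and 0.01% Triton X-100 hosted 1.5 nM cruzain and test compound for 15 min at room temperature. Cleavage of 2 uM Z-FR-AMC was then tracked by fluorescence.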
# 2A StopGo: lowers the luciferase signal of an FMDV 2A StopGo reporter | Potency, µM (titrated, usually from 57.9 µM), for inactives: at the top dose signal change, negative = less light | human cells with a luciferase reporter of 2A StopGo recoding; control for the full effect not named in the record | 410,000 tested, 1.2% active; active = well fitted falling curve with a large enough effect; inconclusive = small, poorly fitted or top-dose-only effect; inactive = no such curve, though single readings can be large or run the other way; tested in HEK293T cells; also: % is scaled to controls: 0 for no effect and ±100 for the full control effect; nearly all actives have a fitted effect of over 45% in size; luciferase light after 4 h
# NS1 inh: blocks influenza NS1 protein function; Potency, µM (highest dose often 46.1 µM), inactives show at the top dose activity, positive = more growth; S. cerevisiae slowed by influenza A NS1, growth recovery by OD600; 270,000 tested, 0.4% active; active means well fitted rising curve with a large enough effect; inconclusive means small, poorly fitted or top-dose-only effect; inactive means no such curve, though single readings can be large or run the other way; also: nearly all actives have a fitted effect of over 50% in size
#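 Read-out: OD600 growth recovery of NS1-expressing budding yeast. Cells grown overnight at 30C in -URA glucose medium, washed, resuspended and diluted 1:100 in 2% galactose assay medium, pH 6.0. Same strain lacking NS1 served as positive control.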
# SARS PLpro yeast: blocks SARS-CoV papain-like protease in a yeast assay; S. cerevisiae expressing SARS-CoV PLpro, growth rescue; control for the full effect not named in the record; Potency, µM (titrated, usually from 32.9 µM), inactives show top-dose activity, positive = growth rescue; 330,000 tested, 0.19% active; AID 485353; active means well fitted rising curve with a large enough effect; inconclusive means small, poorly fitted or top-dose-only effect; inactive means no such curve, though single readings can be large or run the other way; also: 0% is about no effect; nearly all actives have a fitted effect of over 55% in size; growth read by luminescence after 48 h
# Cruzain noTriton: inhibitors of Trypanosoma cruzi cruzain without detergent; Potency, µM, inactives show max response, negative = inhibition, usual class: inhibitors; P25779; 200,000 tested, 2.3% active; purified cruzain, Z-FR-AMC fluorescence, no detergent;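 also: plate controls were enzyme without inhibitor for no effect and buffer without enzyme for full effect; nearly all actives have a fitted effect of over 40% in size; top concentration of the series not given in the record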
#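 Purified cruzain at 1.5 nM, pre-incubated 15 min with compound at room temperature in 100 mM sodium acetate pH 5.5, 5 mM DTT, 0.00005% Triton X-100. Reaction started with 2 uM Z-FR-AMC; AMC fluorescence increase over 60 s gives rate.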
# Lassa entry inh: inhibitors of Lassa virus binding or cell entry; Lassa virus pseudotype entry inhibition, cell reporter; control for the full effect not named in the record; Potency, µM (doses to about 37.9 µM), without a hit: at the highest dose activity change, negative = inhibition, usual class: inhibitors; 300,000 tested, 1.2% active; AID 540256; active means well fitted inhibition curve with a large enough effect; inconclusive means small, poorly fitted or top-dose-only effect, or effect the other way; inactive means flat fitted curve, though single readings scatter; tested in HEK293 cells; also: % is scaled to controls: 0 for no effect and ±100 for the full control effect; nearly all actives have a fitted effect of over 50% in size; luciferase read-out
# RE007 growth inh: less growth of the S. pombe RE007 Vpr strain; S. pombe RE007 Vpr strain, BacTiter-Glo ATP luminescence, 24 h; control for the full effect not named in the record; Potency, µM (highest dose often 92.2 µM), inactives show at the top dose activity change, negative = less growth; 360,000 tested, 0.21% active; active = well fitted falling curve with a large enough effect; inconclusive = small, poorly fitted or top-dose-only effect; inactive = no such curve, though single readings can be large or run the other way;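 also: % is scaled to controls: 0 for no effect and ±100 for the full control effect; nearly all actives have a fitted effect of over 50% in size; the assay follows cell death caused by Vpr and the record does not say whether a fall means rescue or toxicity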
#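 Fission yeast RE007 carrying one integrated HIV-1 vpr copy, seeded at OD 0.01 in PMG+AL medium with 23 nL pinned compound. Grown 24 h at 30 degrees; viability read by BacTiter-Glo luminescence after 5 min.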
# Starred values were filed as active, the others as inactive; u = inconclusive; x = not tested or not shown; & = joins results of further samples; [ ] = dose if it differs, or a comment. Unless noted, calls follow the shape of the dose curve; as a rule, active = well fitted curve in the direction sought with a large enough effect; inconclusive = small, poorly fitted or top-dose-only effect, or another doubt; inactive = no such curve, though single readings can be large; an effect the other way counts as inactive or inconclusive. Potency is read from the fitted curve at half-maximal effect.
canonical_smiles	Lassa entry inh	Cruzain noTriton	2A StopGo	SARS PLpro yeast	Cruzain inh Det	RE007 growth inh	MARV entry inh	NS1 inh
COc1ccc(-c2noc(-c3cc4ccccc4oc3=O)n2)cc1	x	-6%	x	-5%	5.3%	x	x	11%
CC12CCC(C(=O)N(CCC#N)CCC#N)(CC1=O)C2(C)C (stereo not given)	21%	1%	-7%	5%	1.2%	11%	-2%	3%
CCCCN(C(=O)c1ccc(-c2ccc([N+](=O)[O-])cc2)o1)c1c(N)n(CCCC)c(=O)[nH]c1=O	6%	x	0%	-1%	x	-1%	u	x
Cc1cccc(N(CC(=O)NC2CCCCC2)C(=O)CCCC(=O)Nc2ccccn2)c1	-4%	17%	22%	-17%	-3.1%	25%	-25%	-13%
COc1ccc(NC(=O)COC(=O)C2CCC2)cc1Cl	x	x	-19%	-3%	x	-5%	x	-13%
Cc1ccc(N2CCN(C(=O)CCc3c(C)nc4ncnn4c3C)CC2)c(C)c1	-4%[46.1 µM]	3%	u	x	-0.1%	x	2%[46.1 µM]	x
Cn1c(Cc2ccccc2)nnc1SCC(=O)c1cccs1	6%	11%	-16%	2%	-2.0%	1%	3%	-11%
CCc1ccc(CCC(=O)Nc2ccc(OC)cc2)o1	-19%	-15%	30%	-12%	-1.2%	-13%	-1%	-7%
c1ccc(CCNCCCOc2cccc3ccccc23)cc1	u	x	-8%	4%	x	4%	u	-25%
Cc1ccc(-c2cc(C(=O)NN)n[nH]2)o1	22%	x	-2%	-1%	x	-3%	3%[46.1 µM]	4%
CN1CCN(c2nc3c(c(=O)n(C)c(=O)n3C)n2CC(N)=O)CC1	-25%	-3%	x	11%	2.9%	-11%	-10%	u
Cc1c(C(=O)N2CCC(C)CC2)cccc1[N+](=O)[O-]	-1%	x	-9%	-1%	x	4%	2%	-2%
COc1ccc(CCNc2nc(-c3ccc(F)cc3)cc(C(F)(F)F)n2)cc1OC	6%[46.1 µM]	14%	-10%	x	-0.6%	x	-17%[46.1 µM]	x
Cc1c(S(=O)(=O)Nc2ccc(Oc3ccccc3)cc2)c(=O)n(C)c(=O)n1C	x	x	-24%	3%	x	-18%	x	9%
CC(=O)Nc1ccc(C(=O)OCc2ccc(Cl)c(Cl)c2)cc1	-6%	10%	-3%	-24%	-8.7%	5%	-3%	-3%
COc1ccccc1NC(=O)CN1C(=O)NC(C)(C)C1=O	0%	-13%	7%	u	2.6%	-9%	11%	0%
COc1ccc2c(c1)C(=O)[C@@H](OC(=O)NS(=O)(=O)c1ccc(F)cc1)[C@H](c1ccc(OC)c(Br)c1)O2	u	-1%	x	x	-0.4%	x	82%&82%[14.2 µM]	x
O=C(OCc1cc([N+](=O)[O-])cc2c1OCOC2)c1ccc2ccccc2n1	9%	x	-1%	-1%	x	-4%	5%[46.1 µM]	x
CN(CCc1ccccn1)C(=O)Nc1ccc(F)cc1	27%	1%	-23%	6%	0.9%	-13%	5%	-12%
Cc1nc2ccccc2c(=O)n1NC(=O)c1ccc(C(C)(C)C)cc1	x	x	u	-4%	x	25%	x	-3%
O=[N+]([O-])c1ccc(NCc2ccc3c(c2)OCO3)cc1	15%[46.1 µM]	x	15%	-2%	x	9%	3%[46.1 µM]	x
CCNc1nc2cccnc2s1	x	x	44%[activator]	2%	x	2%	x	5%
Brc1ccc(-c2nnc(-c3ccccc3)o2)o1	u	u	23%	6%	-2.2%	u	u	-3%
CCOc1ccc(-c2nnc3ccc(SCC(=O)N4CCCCC4)nn23)cc1	x	11%	4%	-4%	3.9%	-1%	x	-7%
Cc1cc(C)cc(NC(=O)Cn2cc(C(=O)c3cccs3)c3ccccc32)c1	u	-20%	-23%	x	-4.9%	x	u	x
O=C(CCC1CCCCC1)Nc1ccccc1-c1ccccc1	3%	0%	-24%	-34%	-1.3%	-11%	-27%	-46%
Cc1ccc(-n2c(C)nc3c(cnn3-c3ccccc3)c2=O)cc1	8%[46.1 µM]	-9%	u	x	1.1%	x	x	x
Cc1ccc(-c2nc(CCNC(=O)C(=O)Nc3c(C)cccc3C)cs2)cc1	-3%[46.1 µM]	18%	u	x	6.9%	x	x	x
O=C(NCC(c1cccnc1)N1CCc2ccccc2C1)C(=O)Nc1ccccc1 (stereo not given)	6%[46.1 µM]	-6%	-9%	x	-1.0%	x	x	x
COc1ccc(-n2nc(C(=O)N3CCN(c4cccc(C(F)(F)F)c4)CC3)c3c4ccccc4n(C)c3c2=O)cc1Cl	2%[46.1 µM]	22%	-16%	x	2.9%	x	14%[46.1 µM]	x
CCOC(=O)c1cc(-c2ccc(Cl)s2)[nH]n1	x	x	31%[activator]	-1%	x	-23%	x	-7%
COc1ccccc1S(=O)(=O)CC(O)COc1ccc(C#N)cc1 (stereo not given)	x	x	5%	0%	x	10%	-10%[46.1 µM]	9%
COc1ccc(/C=C/C(=O)NCCOc2ccccc2OC)cc1	10%	-10%	1%	13%	-5.7%	-17%	u	-3%
O=C(c1ccc(Cl)c(S(=O)(=O)Nc2ccccc2C(=O)N2CCc3ccccc3C2)c1)N1CCc2ccccc2C1	u	u	34%[activator]	-3%	-2.3%	25%	u	u
CC(=NCc1ccc2c(c1)OCO2)c1c(O)n(-c2ccccc2)c(=O)[nH]c1=O	u	x	-22%	0%	x	5%	15%	3%
Cc1ccc(C(=O)N2CCN=C2SCc2ccc([N+](=O)[O-])cc2)cc1C	-8%	x	u	5%	x	-14%	-5%	x
O=C(OC1CCOC1=O)c1ccc2ncsc2c1 (stereo not given)	-12%	-3%	13%	-1%	-3.2%	0%	8%[46.1 µM]	3%
O=C(CSc1ccc(-c2cccnc2)nn1)Nc1ccc(F)cc1	7%	x	-12%	1%	x	1%	6%	-2%
COc1cc2c(cc1/C=C/C(=O)O)OC(C)C2 (stereo not given)	15%[46.1 µM]	x	-2%	0%	x	12%	11%[46.1 µM]	x
CC(=O)Nc1ccc(S(=O)(=O)Nc2nc3ccccc3nc2Nc2ccc(C(=O)O)c(O)c2)cc1	0%[46.1 µM]	x	-12%	5%	x	-8%	2%[46.1 µM]	x
CCOC(=O)C1CCN(/C=C2/C(=O)NC(=O)N(c3ccc(OCC)cc3)C2=O)CC1	3%	-3%	x	-10%	-1.0%	0%	14%	14%
Cc1ccc(S(=O)(=O)N2CCOCC2)cc1C(=O)NCc1ccc2c(c1)OCO2	-4%	12%	12%	-1%	2.7%	7%	-17%[46.1 µM]	2%
COc1ccccc1N(C)S(=O)(=O)c1ccc(C(=O)N(CC(N)=O)C(C)C)cc1	8%	0%	0%	0%	3.0%	7%	-1%	-3%
CC(=O)Nc1ccc(S(=O)(=O)N(C#N)c2nc(C)cc(C)n2)cc1	x	x	9%	3%	x	-17%	x	23%
O=C(CCN1C(=O)/C(=C\c2ccccc2Cl)SC1=S)N1CCN(c2ccccc2)CC1	-8%	16µM*	-17%	1%	-1.5%	-14%	-4%	10%
Cc1cc(C)c(NC(=O)C2CC(=O)N(Cc3ccccc3)C2)c(C)c1 (stereo not given)	-3%	x	-13%	1%	x	6%	0%[46.1 µM]	x
O=C(COC(=O)Cn1cnc2ccccc21)Nc1ccc(F)c(F)c1	5%	x	5%	8%	x	-9%	-4%	x
COc1ccc(S(=O)(=O)Nc2cc([N+](=O)[O-])ccc2OC)cc1	u	-11%	39%[activator]	25%	-5.6%	-10%	u	10%
COc1cccc(CNC(=O)c2nn(C)c3c2CS(=O)(=O)c2ccccc2-3)c1	17%[46.1 µM]	10%	-12%	x	-0.6%	x	x	x
COc1ccc(S(=O)(=O)N2CN(CCc3ccc(OC)c(OC)c3)c3nc4ccccc4nc32)cc1	-4%	u	-10%	7%	-6.1%	3%	-1%	-2%
NNc1ncnc2c1cnn2-c1ccccc1	u	1%	14%	5%	2.4%	-2%	u	5%
Cc1cccc(C2NC(=O)c3ccccc3N2)c1 (stereo not given)	10%	x	27%	x	x	-6%	u	x
CCOc1cc(C(=O)NCCN2CCOCC2)cc(OCC)c1OCC	0%	-11%	21%	2%	-1.2%	-21%	-5%	-22%
CC12CC3CC(C1)CC(C(=O)NNC(=O)c1ccncc1)(C3)C2	u	x	-21%	8%	x	-9%	16%[46.1 µM]	x
C/C(=N/NC(=O)CSc1ccccn1)c1ccc([N+](=O)[O-])cc1	17%	-3%	-7%	17%	-8.0%	2%	0%	-4%
CCOc1ccc(NC(=O)CSc2nncc(=O)n2N)cc1	0%	x	9%	4%	x	-7%	-25%	15%
CC(=O)c1c(C)n(CCO)c2ccc(O)cc12	7%	7%	0%	2%	1.5%	6%	-1%	-5%
CCSc1nnc2c(n1)OC(c1ccc(C(=O)O)cc1)N(C(C)=O)c1ccccc1-2 (stereo not given)	x	-5%	0%	3%	-1.2%	-15%	-1%	17%
c1coc(CNc2nc3ccccc3n2CCN2CCOCC2)c1	-8%	4%	x	0%	2.9%	1%	3%	-7%
O=C(NCCCN1CCOCC1)c1cc2ccccc2cc1O	22%	x	16%	1%	x	-9%	0%	x

# Other results follow.
canonical_smiles	Lassa entry inh	Cruzain noTriton	2A StopGo	SARS PLpro yeast	Cruzain inh Det	RE007 growth inh	MARV entry inh	NS1 inh
O=C(O)c1sc2cc(C(F)(F)F)cnc2c1-c1ccccn1	-7%[46.1 µM]	x	-6%	-5%	x	4%	6%[46.1 µM]	x
O=C(N=C1SC2CS(=O)(=O)CC2N1c1ccccc1C(F)(F)F)C1CCCO1 (stereo not given)	x	x	12%	-5%	x	4%	x	0%
Cc1ccc(NC(=O)CO/N=C(\N)c2nonc2N)cc1C	6%	-6%	1%	-9%	2.0%	1%	0%	2%
Cc1cc2nc(C3CCN(Cc4nnnn4Cc4ccccc4)CC3)[nH]c2cc1C	-17%	12%	x	3%	5.2%	-26%	u	-8%
O=C(NCC1CCN(C(=O)c2c(F)c(F)c(F)c(F)c2F)CC1)c1c(F)c(F)c(F)c(F)c1F	-18%	x	-25%	-6%	x	-1%	-27%	-4%
CC(=O)Nc1ccc(C(=O)OCC(=O)N(c2ccccc2)C2CCCCC2)cc1	-22%	x	u	-9%	x	-9%	-23%	x
